2A firefly: Primary qHTS Assay for Foot and Mouth Disease Virus Antivirals against NCGC Sytravon and CBC Compound Libraries: Firefly Luciferase Signal; HEK cells with a luciferase reporter of 2A StopGo recoding; Potency, µM (doses to about 57.5 µM), without a hit: top-dose signal change, negative = less light; AID 1745856, 2022; 0.23% of 120,000 active; active = well fitted falling curve with a large enough effect; inconclusive = small, poorly fitted or top-dose-only effect; inactive = no such curve, though single readings can be large or run the other way; further: nearly all actives have a fitted effect of over 60% in size; overnight with compound
StopGo RLuc: Primary qHTS Assay for Foot and Mouth Disease Virus Antivirals against NCGC Sytravon and CBC Compound Libraries: Renilla Luciferase Signal | 0.32% of 120,000 active | AID 1745857, 2022 | HEK cells with a luciferase reporter of 2A StopGo recoding | Potency, µM (series often up to 57.5 µM), for the others: at the top dose signal change, negative = less light; active means well fitted falling curve with a large enough effect; inconclusive means small, poorly fitted or top-dose-only effect; inactive means no such curve, though single readings can be large or run the other way; further: nearly all actives have a fitted effect of over 55% in size; overnight with compound
The depositor's hits bear a star; ? = inconclusive; [ ] = remark or other dose. On the % scale 0 is the no-effect control and ±100 the full control effect; potency means the concentration at half of the fitted maximal effect.

SMILES	2A firefly	StopGo RLuc
CCN(Cc1nc(-c2ccc(OC)cc2)oc1C)S(=O)(=O)c1ccc(C)cc1	?	36%[activator]
Cn1c(=O)[nH]c(=O)c2c1nc(N1CCC(C(N)=O)CC1)n2Cc1ccccc1Cl	-2%	-9%
COc1ccc(-c2nn(C)c(=O)c3ccccc23)cc1NC(=O)c1ccccc1	?	?
CCc1ccc(C(=O)NC(C)C2CCCO2)s1 (stereo not given)	0%	8%
CCCSC1=C(C#N)C(c2ccc(O)cc2)CC(=O)N1 (stereo not given)	4%	-2%
CCOC(=O)c1[nH]c2c(c1CCC1CCCCC1)C(=O)CC(c1ccccc1)C2 (stereo not given)	17%	86%[activator]
CC(C)(/C=N/O)/[N+]([O-])=C/c1ccc(F)cc1	-1%	9%
CN(C)C(=O)COC(=O)c1ccccc1-c1nc2ccccc2s1	23%	14%
O=C(CSc1nc2c([nH]c3ccccc32)c(=O)n1-c1ccc(Cl)cc1)NC1CCCCC1	14%	-5%
O=C(CNC(=O)c1ccccc1Cl)OCc1cc(=O)n2nc(C3CC3)sc2n1	-7%	3%
CC(=O)NC1CCSC1=O (stereo not given)	2%[11.5 µM]	1%
COCCNCC(=O)C12CC3CC(CC(C3)C1)C2	-8%	-6%
CCOC(=O)c1ccc(NC(=O)c2sc3nc(-c4ccncc4)ccc3c2N)cc1	38%[activator]	14%
Cc1ccc(-c2noc(CSc3nnc(C)n3-c3ccc(F)cc3)n2)cc1	6%	8%
COc1ccc(Cl)cc1-c1nc(SCC(=O)NC(C)(C#N)C(C)C)n[nH]1 (stereo not given)	-13%	4%
COc1cccc(C(=O)OCCOc2ccccc2Cl)c1O	259%[activator]	25%
COc1cccc(NC(=O)Nc2c(NC3CCCC3)c3ccccc3oc2=O)c1	-15%	0%
CC(NC(=O)c1cc2ccccc2[nH]1)c1ccccc1 (stereo not given)	-8%	-2%
CCOC(=O)CC(NC(=O)c1cc2cc(Cl)ccc2oc1=O)c1ccccc1Cl (stereo not given)	3%	12%
CCCn1cc2c(C(F)(F)F)cc(=O)n(CCC(=O)O)c2n1	20%	4%
CCn1c(=O)c2cc(C(=O)NCCCOC)sc2c2ccccc21	212%[activator]	125%[activator]
CC(C)c1ccc(OCC(=O)Nc2ccc3oc(-c4cccnc4)nc3c2)cc1	40%	-12%
O=C(COC(=O)C1(c2ccc(F)cc2)CCCC1)Nc1ccc([N+](=O)[O-])cc1C(F)(F)F	?	?
Cc1ccc(Nc2nc(N3CCCC3)nc3nccnc23)c(C)c1	2%	12%
CCCN1CCN(CCCNC(=O)Cn2c(-c3cccs3)cc3ccccc32)CC1	-23%	-20%
CCOC(=O)n1ccn(C)c1=S	-13%	-7%
Cc1ccccc1CCNC(=O)c1ccc2c(c1)nc1n2CCOC1	-2%	-3%
Cc1cc(Br)cc(C)c1C(=O)O	7%	-1%
CCC1CCCCN1CC(=O)N1CCCc2c1c(=O)oc1ccc(OCc3ccccc3)cc21 (stereo not given)	-15%	55%[activator]
CCOc1ccc(C(=O)Nc2cccc(OCc3cc(=O)n4ccccc4n3)c2)cc1	-10%	-11%
COC(=O)[C@]12C[C@H](CC(=O)NCc3ccc(C)o3)C(=O)N(Cc3ccco3)C1=C[C@H](C(C)C)O[C@@H]2C1CC1	-2%	90%[activator]
O=C(COC(=O)c1cc(=O)c2ccccc2o1)NC1CCCCCC1	10%	1%
O=C(Cn1c(=O)oc2cc(S(=O)(=O)N3CCCCCC3)ccc21)Nc1ccc(F)cc1F	-3%	0%
Cc1ccc(NS(=O)(=O)c2ccc(-c3cnc(C)o3)cc2)cc1	-15%	139%[activator]
COc1ccccc1N1CCN(c2ncnc3onc(-c4ccc(F)cc4)c23)CC1	-6%	-11%
CCn1c(NCc2ccc(OC)c(OC)c2)nc2ccccc21	-12%	0%
CCCCCCCCNC(=O)c1ccncc1	?	?
CCN(CC)C(=O)c1cccc(NS(=O)(=O)c2cccs2)c1	-3%	13%
COc1ccc(NC(=O)CCc2ncc(-c3ccccc3Cl)o2)c(OC)c1	1%	-9%
Clc1cccc(-n2ncc3c(N4CCCCCC4)ncnc32)c1	87%[activator]	-2%

Looked up above.
In 2A firefly, `CCOC(=O)n1ccn(C)c1=S` shows -13%
In 2A firefly, `Clc1cccc(-n2ncc3c(N4CCCCCC4)ncnc32)c1` shows 87%[activator]

Remaining list, next part.
SMILES	2A firefly	StopGo RLuc
O=C(O)Cc1sc(NC2CC2)nc1-c1ccccc1	37%[activator]	-6%
CC(C)c1cc(C(=O)O)c2c(C3CC3)nn(-c3ccccc3)c2n1	11%	10%
CCC(Oc1ccccc1F)C(=O)NCc1csc(-c2ccc(C)cc2)n1 (stereo not given)	-23%	-13%
CCOC(=O)c1ccccc1NC(=O)CSc1c(CC(C)C)cnc2c1c(=O)n(C)c(=O)n2C	4%	-6%
COc1cc2ncc3c(-c4ccc(C)cc4)nn(-c4ccc(F)cc4F)c3c2cc1OC	38%[activator]	-10%
COc1ccc2c(=O)c(-c3ccccc3OC)c(C(F)(F)F)oc2c1	4%	-5%
COc1ccccc1C(=O)Nc1sc(Nc2ccccc2)nc1C(N)=O	43%[activator]	31%[activator]
O=C1COc2ccc(S(=O)(=O)NC3CCCCCC3)cc2N1Cc1noc(C2CC2)n1	2%	228%[activator]
COc1ccc(C(=O)Nc2ccc3nc(C)[nH]c3c2)c(OC)c1	0%	6%
CCOC(=O)C1=C(Nc2ccccc2)O/C(=C\c2cc(F)ccc2F)C1=O	0%	46%[activator]
CCc1ccc(NC(=O)c2ccccc2NCC(=O)N2CC(=O)Nc3ccccc32)cc1	140%[activator]	-9%
CCCCOc1ccc(-c2nn(-c3ccccc3)cc2C2NC(=O)NC(C)=C2C(=O)OCC)cc1 (stereo not given)	-23%	-21%
CC(=O)NCCC(=O)Nc1ccc2c(c1)CCC2	4%	19%
Cc1ccc2nc(NC(=O)c3cccn(Cc4ccc(Cl)cc4)c3=O)sc2c1	31%[activator]	4%
COc1ccc(-c2nc(SCC(=O)NCCc3ccc(OC)c(OC)c3)n[nH]2)cc1	5%	-5%
COc1ccc(CCNC(=O)Cn2nc(C)n3c(cc4cc(F)ccc43)c2=O)cc1OC	-7%	7%
CN(Cc1ccccc1)C(=O)Cn1c(=O)c2cccn2c2ccc(F)cc21	-12%	-9%
CCc1ccccc1NC(=O)Cn1nc(C(F)(F)F)c2c1CCC2	5%	7%
Fc1c(C(F)(F)F)nc2ccc(Br)cn12	19%	-3%
CCCc1nc(N2CCN(CC(=O)N3CCOCC3)CC2)c(C#N)c2c1CCC2	-21%	-12%
CCCCC(CC)COC(=O)c1ccccc1C(=O)OCC(CC)CCCC (stereo not given)	-9%[22.9 µM]	-1%[114 µM]
COc1cccc(CNC(=O)c2cc(-c3cccc(OC)c3)n[nH]2)c1	112%[activator]	45%[activator]
Cc1ccc(NC(=O)CSc2nc(=O)cc(N)n2CCc2ccccc2)cc1	5%	10%
CC1=C/C(=N\NC(=S)Nc2cccc(C(F)(F)F)c2)CC1	78%[activator]	-6%[1.06 µM]
O=C(O)c1cccc(NC(=O)c2cc3cc(Br)cc(Br)c3oc2=O)c1	11%	-9%
CN(C)CCNC(=S)NC(=O)c1ccccc1	7%	-4%
COc1ccc(C)cc1NC(=O)c1cn(C)c2ccccc12	16%	7%
O=c1[nH]nc(-c2ccco2)c2c1Nc1nnnn1C2c1ccccc1Cl (stereo not given)	44%[activator]	0%
O=C(NNC(=O)C1C2CCCCC21)c1ccccc1Cl (stereo not given)	0%	23%
COC(=O)CNC(=O)Cn1ccc2c(Cl)cccc21	-4%	-5%
COCCSc1nnc(-c2ccc(Cl)cc2)n1-c1ccc(OC)cc1	2%	36%[activator]
COc1ccc(Cn2ccc3nc(C)c(C(=O)NCc4cccc(OC)c4)cc3c2=O)cc1	-17%	20%
CC(=O)Nc1ccc(-n2c(CCC(=O)O)ccc2-c2ccc(Br)cc2)cc1	-22%	-15%
COc1ccc(N(Cc2cc(CN3CCOCC3)cs2)S(=O)(=O)c2ccc(F)cc2)cc1	-2%	29%
COc1cc(OC)c(NC(=O)NCCn2c(C(F)(F)F)nc3ccccc32)cc1Cl	9%	18%
Cc1cccc(OCC(=O)OCc2cc(=O)n3nc(C4CC4)sc3n2)c1	-3%	-8%
O=C(NC1CCCCCC1)C1CC(c2cccc(F)c2)=NO1 (stereo not given)	15%	1%
Cc1ccc(-n2nc(C(=O)N3CCN(c4cccc(C(F)(F)F)c4)CC3)c3c4ccccc4n(C)c3c2=O)cc1	-1%	-3%
CCCNC(=O)c1cccc(NC(=O)c2ccc(F)cc2)c1	73%[activator]	107%[activator]
CCCNc1ccc(-c2nc(-c3ccncc3)no2)cc1[N+](=O)[O-]	0%	3%

Of the compounds above, 2 contain a furan ring, fused or not:
SMILES	2A firefly	StopGo RLuc
COC(=O)[C@]12C[C@H](CC(=O)NCc3ccc(C)o3)C(=O)N(Cc3ccco3)C1=C[C@H](C(C)C)O[C@@H]2C1CC1	-2%	90%[activator]
O=c1[nH]nc(-c2ccco2)c2c1Nc1nnnn1C2c1ccccc1Cl (stereo not given)	44%[activator]	0%

Some of these compounds in order of count of non-hydrogen atoms, rising.
SMILES	2A firefly	StopGo RLuc
CC1=C/C(=N\NC(=S)Nc2cccc(C(F)(F)F)c2)CC1	78%[activator]	-6%[1.06 µM]
O=C(NC1CCCCCC1)C1CC(c2cccc(F)c2)=NO1 (stereo not given)	15%	1%
COc1cccc(CNC(=O)c2cc(-c3cccc(OC)c3)n[nH]2)c1	112%[activator]	45%[activator]
CC(=O)Nc1ccc(-n2c(CCC(=O)O)ccc2-c2ccc(Br)cc2)cc1	-22%	-15%
Cc1ccc(NC(=O)CSc2nc(=O)cc(N)n2CCc2ccccc2)cc1	5%	10%
COc1cc(OC)c(NC(=O)NCCn2c(C(F)(F)F)nc3ccccc32)cc1Cl	9%	18%
COc1ccc(Cn2ccc3nc(C)c(C(=O)NCc4cccc(OC)c4)cc3c2=O)cc1	-17%	20%

(continued)
SMILES	2A firefly	StopGo RLuc
NCCCn1cnc2ccccc21	8%	-4%[1.06 µM]
CCOc1cccc2cc(S(=O)(=O)c3cccc(Cl)c3)c(=O)oc12	-6%	-12%
CCCCCn1nc(C(=O)OCC(=O)NC(C)c2ccccc2)c2ccccc2c1=O (stereo not given)	2%	-5%
O=C(Nc1cc(F)ccc1F)c1cc2nc(-c3ccco3)cc(C(F)(F)Cl)n2n1	13%	10%
CCCCN(CC)CCCNC(=O)Cn1ncc2c3ccccc3n(Cc3ccccc3F)c2c1=O	-3%	0%
COc1ccc(Br)cc1C(=O)NCC1(c2ccccc2)CCOCC1	-16%	-5%
CCOC(=O)CSC1=C(C#N)C(c2ccco2)C(C(=O)Nc2cccc(C(F)(F)F)c2)=C(C)N1 (stereo not given)	3%	8%
COc1ccc(C(=O)/C=C/c2ccc(C)cc2)c(O)c1	189%[activator]	17%
COc1ccc(OC)c(NC(=O)CCc2c(C)c3ccc(OC)c(C)c3oc2=O)c1	7%	1%
Cc1c(C)c2ccc(OCC(=O)NCc3ccc(S(N)(=O)=O)cc3)cc2oc1=O	-14%	-10%
O=C1CCCc2cc(S(=O)(=O)N3CCCC(C(=O)NCc4ccc(Cl)cc4)C3)ccc2N1 (stereo not given)	0%	40%[activator]
COc1cc2nc(NCCc3ccc(Cl)cc3)n3nc(-c4ccccc4)nc3c2cc1OC	-8%	-16%
Cc1nc2ccccc2nc1CN1C(=O)C(=O)N(C2CCCC2)C1=O	4%	-3%
O=C(Nc1cc(C(F)(F)F)ccc1Cl)C(F)(F)C(F)(F)C(F)(F)C(F)(F)C(=O)Nc1cc(C(F)(F)F)ccc1Cl	19%	10%
Cc1ccc(N/N=C/c2ccc(C)s2)cc1	198%[activator]	11%
COc1cccc(C2=NS(=O)(=O)N(C)C(C(=O)Nc3ccn(Cc4ccc(C)cc4)n3)=C2)c1	-23%	17%
CCOC(=O)N[C@H](Cc1c[nH]c2ccccc12)C(=O)Nc1cccc(Cl)c1	-15%	0%
N#Cc1ccc(S(=O)(=O)N2CCC(C(=O)Nc3nc4c(s3)CCC4)CC2)cc1	18%	6%
CCOc1ccc(C(=O)Nc2cc(-c3nc4ccccc4o3)ccc2C)cc1Cl	23%	6%
COc1ccc(Nc2nc(C)nc(N)c2S(=O)(=O)c2ccccc2)cc1	-13%	-6%
C[N+](C)(C)c1ccc(/C=N/N=C/c2ccccc2)cc1	139%[activator]	0%
O=C(CCc1ncc(-c2ccccc2Cl)o1)N1CCN(S(=O)(=O)c2ccccc2Cl)CC1	-6%	-18%
Cc1ccc(-n2cnnc2SCc2nc3ccccc3o2)c(C)c1	-7%	-11%
Nc1ccc(-c2ccc(CO)o2)cc1	-2%	0%
COc1ccc(NC(=O)CCNS(=O)(=O)c2ccc3c(c2)CCCC(=O)N3)cc1	-3%	2%
O=C(NCc1ccncc1)c1ccc(NS(=O)(=O)c2ccc3[nH]c(=O)[nH]c3c2)cc1	-18%	-21%
Cc1oc(-c2ccc(C(=O)N3CCOCC3)cc2)nc1CS(=O)(=O)c1ccccc1	3%	8%
CC(=O)c1cc(CCC(=O)OC(C)C(=O)C23CC4CC(CC(C4)C2)C3)oc1C (stereo not given)	-6%	-1%
CCN1CCc2c(sc(-n3cccc3)c2C(C)NC(=O)Nc2ccc(Br)cc2)C1 (stereo not given)	12%	16%
CCOc1ccc(NC(=O)/C(C#N)=C/c2c[nH]c3ccccc23)cc1	7%	-8%
CCCCn1c(-c2ccc(C)cc2)c(C)n2c3c(=O)n(C)c(=O)n(C)c3nc12	-12%	-7%
O=C(NCCC1=CCCCC1)c1ccc2c(c1)ncn2-c1cccc(Cl)c1	40%[activator]	-3%
Cc1cccc(NC(=O)C2CCCN2/C=C/C(=O)C(F)(F)F)c1 (stereo not given)	-2%	-1%

Assay outcomes: PubChem, National Center for Advancing Translational Sciences (NCATS)

Random draw from the library. Share with any hit: about 0.53%.
